Screening data deposited in PubChem BioAssay by several laboratories.
HSV augment: HSV replication enhancement; HSV replication augmentation in cells, fold increase; AID 1956; hit rate 0.005% among 220,000; maximum fold increase;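 active means peak rise of 1.5-fold or more in the series; tested in PC3 cells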;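 further: first round at 10 µM; read as green reporter fluorescence; hits show the peak of a series up to 25 µM; 1 = signal of infected wells without compound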
PKD1 inh: inhibitors of human PKD1 kinase; Q15139; PKD1 kinase fluorescence polarization assay; inhibition, %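 (about 10 µM by stock and volumes)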; hit rate 0.056% among 200,000;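 active means inhibition of 50% or more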;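 further: controls were vehicle for no effect and a reference inhibitor for full effect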
RGS16-Gao: RGS16-Galphao interaction regulator (human). O15492+P09471. bead-based flow cytometry RGS16-Galphao binding, fluorescence; actives lie on both sides. binding response (% of control), % at 10 µM. hit rate 0.38% among 220,000. AID 1441;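 active means below 25% or above 175%, edge rows of some plates excepted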;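 further: Galphao activated by GDP with aluminum fluoride before binding; 100% = wells without compound and 0% = beads without RGS; some results beyond the cut were filed as inactive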
Target sequence (O15492 whole entry, looked up): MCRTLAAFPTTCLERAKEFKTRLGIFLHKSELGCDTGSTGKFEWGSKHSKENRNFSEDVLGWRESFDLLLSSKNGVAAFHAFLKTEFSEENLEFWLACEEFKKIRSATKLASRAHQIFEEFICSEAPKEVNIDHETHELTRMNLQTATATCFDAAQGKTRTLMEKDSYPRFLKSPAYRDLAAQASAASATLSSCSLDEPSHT
Target sequence (P09471 whole entry, looked up): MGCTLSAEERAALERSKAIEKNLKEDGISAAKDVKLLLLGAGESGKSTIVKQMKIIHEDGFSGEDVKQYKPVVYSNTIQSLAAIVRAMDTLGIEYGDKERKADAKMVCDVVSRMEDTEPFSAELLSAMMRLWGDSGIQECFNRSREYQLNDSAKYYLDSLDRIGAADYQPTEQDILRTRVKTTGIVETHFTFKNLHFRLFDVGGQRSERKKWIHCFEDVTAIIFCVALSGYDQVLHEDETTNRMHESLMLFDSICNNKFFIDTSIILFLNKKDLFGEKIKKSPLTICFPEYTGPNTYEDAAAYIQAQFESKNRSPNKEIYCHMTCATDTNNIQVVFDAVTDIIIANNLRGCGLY
GALR2 agonist: agonists of human galanin receptor 2 (GALR2). O43603. GALR2-expressing cells, agonist activation read-out. activation, %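 (tested at 5 µM)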. hit rate 0.48% among 140,000;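 active means above mean plus 3 SD of all compounds, about 5% in these data, not always enough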;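 further: 0% = vehicle buffer wells and 100% = reference agonist at full effect; tested in CHO reporter cells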
Target sequence (O43603 whole entry, looked up): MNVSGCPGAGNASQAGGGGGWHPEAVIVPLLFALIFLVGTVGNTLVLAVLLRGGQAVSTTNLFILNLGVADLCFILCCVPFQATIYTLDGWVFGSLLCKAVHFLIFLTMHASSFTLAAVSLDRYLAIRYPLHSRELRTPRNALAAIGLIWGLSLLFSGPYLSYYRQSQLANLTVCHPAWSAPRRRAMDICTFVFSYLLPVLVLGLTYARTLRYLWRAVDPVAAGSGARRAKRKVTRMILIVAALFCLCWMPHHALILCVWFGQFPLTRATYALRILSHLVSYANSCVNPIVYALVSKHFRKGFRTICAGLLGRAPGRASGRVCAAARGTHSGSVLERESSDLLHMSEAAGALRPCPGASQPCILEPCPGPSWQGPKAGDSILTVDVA
Insulin prom inh: TRM-6 insulin promoter activity inhibition; AID 1273; TRM-6 cells (human fetal islet line), insulin promoter-eGFP reporter, imaging; reporter expression induced with tamoxifen; hit rate 0.9% among 130,000; inhibition, % at 2 µM;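 active means inhibition above the mean plus 3 SD, with well images judged a real hit on visual review, cut at about 60% in these data, passing the limit was not always enough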
Insulin prom inh cell count: also measured in Insulin prom inh; calls as there; normalized cell count, %; measured here: cell count, toxicity; reference of the scale not given here;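 cells exposed to compound for 48 h; stained nuclei by imaging scaled within each plate; lower means fewer cells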
HSV augment primary fold: recorded beside HSV augment, whose call it bears; fold increase; compound at 10 µM; measured here: primary screen fold increase 10 uM; tested in PC3 cells;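 GFP signal in the first replicate; 1 = infected wells without compound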
* hit, by the source's call; i = inactive; · = not tested or not shown.

Fields: HSV augment	HSV augment primary fold	PKD1 inh	RGS16-Gao	GALR2 agonist	Insulin prom inh	Insulin prom inh cell count
COc1ccc(/C=C2/SC(=O)N(CCC(=O)Nc3ccc(S(=O)(=O)Nc4nccs4)cc3)C2=O)cc1
 : i	0.92	5	100	-1.0	6	143
CN(C)S(=O)(=O)c1ccc(Oc2ccc(S(=O)(=O)N(C)C)cc2)cc1
 : i	0.86	-9	101	-1.0	-52	125
O=C(NC(=S)N1CCN(Cc2ccccc2)CC1)c1ccco1
 : i	0.91	-4	96	·	·	·
N=c1oc2ccccc2cc1C(=O)N/N=C/c1ccccc1
 : ·	·	1	98	-1.5	-18	56
CCC(C)SCc1nc2ccccc2[nH]1 (stereo unspecified)
 : i	0.88	-3	147	-1.0	54	155
Cc1c(Cc2ccccc2)c(=O)oc2cc(OCC(N)=O)ccc12
 : i	1	-8	62	·	-7	81
Cc1nc(SCc2ccc(C(=O)O)cc2)nc2c1CCCC2
 : i	0.74	-3	66	·	-53	135
Cc1ccccc1C(=O)NNC(=O)CSc1nnc(-c2ccncc2)n1-c1ccccc1
 : i	1	-1	98	-1.2	0	93
Cc1sc(NC(=O)/C=C/c2ccco2)c(C(=O)O)c1C
 : i	0.94	·	89	·	·	·
CCn1nc(C)c(CN2CCCC(CO)(Cc3ccccc3)C2)c1C (stereo unspecified)
 : i	1.1	-6	106	·	·	·
COC(=O)c1ccc(=O)n(Cc2ccco2)c1
 : ·	·	1	101	-0.9	-56	117
CC1=Nc2cccc3cccc(c23)N1
 : i	0.68	8	108	-2.2	·	·
Cc1cc2n(n1)C(c1ccccc1Cl)Nc1ccccc1-2 (stereo unspecified)
 : i	0.82	-9	105	-1.8	-33	141
Cc1cccc(NCC(=O)N/N=C/c2ccc(Br)cc2)c1
 : i	0.89	0	45	·	27	85
COc1cccc(NC(=S)N(CCc2c(C)[nH]c3ccccc23)Cc2cccs2)c1
 : ·	·	-1	·	-0.2	24	115

In the list so far, three contain two or more sulfur atoms.
Fields: HSV augment	HSV augment primary fold	PKD1 inh	RGS16-Gao	GALR2 agonist	Insulin prom inh	Insulin prom inh cell count
COc1ccc(/C=C2/SC(=O)N(CCC(=O)Nc3ccc(S(=O)(=O)Nc4nccs4)cc3)C2=O)cc1
 : i	0.92	5	100	-1.0	6	143
CN(C)S(=O)(=O)c1ccc(Oc2ccc(S(=O)(=O)N(C)C)cc2)cc1
 : i	0.86	-9	101	-1.0	-52	125
COc1cccc(NC(=S)N(CCc2c(C)[nH]c3ccccc23)Cc2cccs2)c1
 : ·	·	-1	·	-0.2	24	115

Continued:
Fields: HSV augment	HSV augment primary fold	PKD1 inh	RGS16-Gao	GALR2 agonist	Insulin prom inh	Insulin prom inh cell count
Cc1cccc(OCc2nnc(NC(=O)Cc3cccs3)s2)c1
 : i	0.93	-2	102	0.7	-144	110
Cc1cc(NC(=O)c2cc(-c3ccco3)on2)no1
 : i	0.8	5	24	-3.3	·	·
Cc1ccn2c(C(=O)c3ccc(Cl)cc3)cnc2c1
 : i	0.78	-6	91	-2.6	-35	31
N#Cc1c(-c2ccccc2)ccn(Cc2ccccc2Cl)c1=O
 : ·	·	4	100	0.4	9	153
C=CCOc1ccc(CN(C)CC(=O)Nc2ccc3c(c2)CCC3)cc1
 : i	0.92	3	100	·	-6	39
Cc1ccc(-c2cc(C(=O)Nc3ccc(S(=O)(=O)Nc4nccs4)cc3)c3ccccc3n2)c(C)c1
 : i	1.1	3	98	0.0	·	·
CCOc1ccc(C2CC(c3cccc(C)c3)n3ncnc3N2)cc1 (stereo unspecified)
 : i	1.1	-7	104	-3.5	·	·
Cc1ccc(OCCn2c(Br)nc3c2c(=O)n(C)c(=O)n3C)cc1
 : i	0.91	-12	110	-1.3	-400	45
COc1cccc(-n2nnc3c(=O)n(CC(=O)OCc4ccccc4)cnc32)c1
 : i	0.89	-10	139	-1.8	44	114
CN(C)C(CNC(=O)Cc1cccc(C(F)(F)F)c1)c1ccco1 (stereo unspecified)
 : i	0.94	7	86	·	0	124
CS(=O)(=O)N(CC(=O)NC1CC2CCC1C2)c1cccc(C(F)(F)F)c1 (stereo unspecified)
 : i	1	-8	103	1.5	-13	137
Cc1ccc(C)c(NC(=O)CSc2nnc(-c3ccncc3)o2)c1
 : i	1	·	85	·	·	·
CC(C)CCN1CCN(Cc2cccc(-n3cccn3)c2)CC1CCO (stereo unspecified)
 : i	0.96	-6	189	·	·	·
Nc1scc2c(C(=O)N/N=C/c3ccc(Cl)cc3)nn(-c3ccccc3)c(=O)c12
 : i	0.77	2	91	1.1	-18	73
CCOCCCN(C(=O)CNC(=O)c1ccco1)C(C(=O)NC1CCCC1)c1ccccc1C (stereo unspecified)
 : i	0.91	-4	87	-1.9	-3	71
COc1ccc(N/C(=C/[N+](=O)[O-])SC)cc1
 : ·	·	5	106	·	-23	85
CC(C)Cn1c2c(c(=O)[nH]c1=O)C(NS(=O)(=O)c1ccc(Cl)cc1)(C(F)(F)F)C(=O)N2 (stereo unspecified)
 : i	0.91	·	112	·	·	·
CCOc1ccc(NC(=O)CCC(=O)O)cc1
 : i	1	-2	100	-0.9	50	100
CC(OC(=O)CN1C(=O)C2CCCCC2C1=O)C(=O)Nc1ncc(Cl)cc1Cl (stereo unspecified)
 : i	1.2	-9	98	-1.8	0	114
Cc1nc([N+](=O)[O-])c(SCC(N)=O)n1Cc1ccccc1
 : i	0.88	-7	103	·	·	·
CCCCN(C)S(=O)(=O)c1ccc(C(=O)Nc2nnc(-c3cccs3)o2)cc1
 : i	0.72	-14	100	-3.7	-107	37
Nc1ccc(CCS(N)(=O)=O)cc1
 : i	0.97	-13	98	-0.3	·	·
CCOc1ccc(-n2c(-c3ccco3)nc3c(cnn3-c3ccc(C)cc3)c2=O)cc1
 : i	0.9	·	100	·	·	·
CC(C)(C)C1CCc2c(sc3nc(SCC(N)=O)nc(N)c23)C1 (stereo unspecified)
 : i	0.9	0	109	-3.8	44	132
O=C(NCCCN1CCCC1=O)c1ccc2c(=O)n(Cc3ccco3)c(=S)[nH]c2c1
 : i	0.84	-5	102	-1.0	58	52
CC1CCC2(CC1)NC(=O)c1ccccc1O2 (stereo unspecified)
 : i	1.1	2	102	-3.1	·	·
O=C(NCC1CCOCC1)c1ccc(OC2CCN(Cc3ccccn3)CC2)cc1
 : i	0.85	-8	115	·	-15	87
O=C(Nc1nccs1)c1ccc(-c2ccccc2Cl)o1
 : i	0.93	-2	103	-0.3	48	127
CCCc1[nH]nc2c1C(CCC)C(C#N)=C(N)O2 (stereo unspecified)
 : i	1	1	98	-0.6	·	·
CCS(=O)(=O)N1CCN(c2ncnc3sc(C)c(C)c23)CC1
 : i	0.95	7	102	·	·	·
COc1ccc(C)cc1NC(=O)COC(=O)c1ccc([N+](=O)[O-])o1
 : i	1.3	15	98	·	·	·
CCCCNC(=O)NS(=O)(=O)c1ccc(C)cc1
 : i	0.95	-12	·	-1.9	-48	65
O=C(N1CCOCC1)N1c2ccccc2Sc2ccccc21
 : i	0.94	5	90	-2.2	-23	97
CC(C)(C)c1nnc(NC(=O)Cc2ccc(Br)cc2)s1
 : i	0.91	-4	102	0.3	3	109
COc1ccc(N(CC(=O)N2CCN(c3ccccc3)CC2)S(=O)(=O)c2c(C)noc2C)cc1
 : i	0.9	6	103	-2.5	·	·
Cc1ccc(CC2CC(=O)N(c3ccc(Cl)cn3)C2=O)cc1 (stereo unspecified)
 : i	0.72	-3	92	-0.3	14	79
Cc1ccccc1Cn1c(C(C)O)nc2ccccc21 (stereo unspecified)
 : i	1	-2	105	-1.5	·	·
CCOc1ccc(N=Nc2cc(C(C)C)ccc2O)cc1
 : i	0.95	12	99	-1.4	0	97
Cc1cc(C)n2c(SCC(=O)NC3CCCCC3)nnc2n1
 : i	1	-9	114	·	·	·
O=C(Nc1ccccc1Cl)c1cc(S(=O)(=O)N2CCCCC2)ccc1N1CCOCC1
 : i	0.89	0	98	-0.4	·	·
CC(C)CCNC(=O)Cn1c(=O)oc2cc(S(=O)(=O)N3CC(C)CC(C)C3)ccc21 (stereo unspecified)
 : i	0.96	5	105	-2.7	·	·
COc1ccccc1NC(=O)CN1CCN(CC(=O)Nc2ccc(F)cc2)CC1
 : i	1.2	-9	191	-1.8	-9	35
C=CCN(C(=O)c1ccc(Cl)cc1)c1ccccc1C(=O)NCC(=O)O
 : i	1.1	·	102	·	·	·
N=c1c2c(n(Cc3ccc(F)cc3)c3c1CCC3)CCCC2
 : i	0.77	1	109	·	13	109
COc1cccc(C(=O)N2CCN(Cc3ccc4c(c3)OCO4)CC2)c1OC
 : i	0.86	8	100	-1.3	-36	105
COC(=O)CCC(=O)COc1ccc(OC)cc1C#N
 : i	0.89	0	103	-0.3	·	·
O=C(c1ccccc1)C1Oc2ccccc2C2CC(c3cccs3)=NN12 (stereo unspecified)
 : i	0.72	-9	96	·	19	69
CN(C)CCCNC(=O)c1ccc2[nH]c3ccccc3c2c1
 : i	0.71	-7	101	-1.1	62	83
COc1ccc(/C=C2\Oc3cc(OC(=O)N4CCOCC4)ccc3C2=O)c(OC)c1
 : i	1.2	·	90	·	·	·
COc1cccc(CN(CC2CCCO2)S(=O)(=O)c2ccc(S(=O)(=O)NCC3CCCO3)cc2)c1OC (stereo unspecified)
 : i	0.83	-6	100	-1.0	-59	109
Cc1ccc(NC(=O)Cn2cnc3c(nnn3Cc3ccc(F)cc3)c2=O)cc1
 : i	0.97	4	99	·	-5	83
CCCCN(CCCC)CCNC(=O)c1ccc2nc(-c3ccccc3NC(C)=O)c(=O)[nH]c2c1
 : i	0.95	-3	96	·	-41	139
CCN1C(=O)/C(=C/c2cc(C)n(C)c2C)SC1=Nc1ccc(OC)cc1
 : i	0.92	-4	102	1.2	-27	60
O=S(=O)(NCCN1CCCC1)c1cccc2cccnc12
 : i	0.93	-19	105	-1.2	·	·
Cc1ccc2[nH]c(=O)c(CN(C(=O)c3cccc([N+](=O)[O-])c3)C(C)(C)C)cc2c1
 : i	1	·	35	·	·	·
Cc1ccc(NC(=O)c2nc[nH]c2C(=O)N2CCN(c3ccccc3)CC2)cc1
 : i	0.67	·	103	·	·	·
Nc1nc(SCc2ccccc2)ns1
 : i	1	-5	95	-1.2	7	83
Cc1cccc(NC2=NC3(CCCCC3)N=C(N)N2)c1
 : ·	·	-7	·	-1.4	19	109
Cc1c(Br)c([N+](=O)[O-])nn1CC(=O)Nc1nccs1
 : i	0.84	0	78	·	-18	112
Cc1cc(N)ccc1NC(=O)c1ccccc1
 : i	0.88	-7	104	-1.6	-112	100

New compounds follow:
Fields: HSV augment	HSV augment primary fold	PKD1 inh	RGS16-Gao	GALR2 agonist	Insulin prom inh	Insulin prom inh cell count
O=C(CCCCCn1c(=S)[nH]c2cc3c(cc2c1=O)OCO3)N1CCN(C2CCCCC2)CC1
 : ·	·	-5	83	-1.4	-7	113
C=CCOC(=O)C1=C(C)NC(SCC(=O)N(CC)CC)=C(C#N)C1c1ccccc1 (stereo unspecified)
 : ·	·	-6	100	0.7	·	·
CCOc1ccc(Cn2c(O)cc(=O)[nH]c2=O)cc1
 : i	1.1	-12	98	-0.4	-64	56
COc1ccc(C(=O)OC(C(=O)c2ccc(C)cc2)c2ccccc2)cc1 (stereo unspecified)
 : i	0.89	0	100	-0.1	36	81
CCCNS(=O)(=O)c1ccc(CCC(=O)NCc2ccc3c(c2)OCO3)cc1
 : i	0.96	-8	101	-1.0	38	81
Cc1cc(Oc2ccc(=O)n(C)n2)nc(SCCOc2ccccc2)n1
 : i	0.99	·	127	·	·	·
CCc1c(C)nc2ncnn2c1N1CCCC(C(=O)NCc2ccc3c(c2)OCO3)C1 (stereo unspecified)
 : i	1.2	-10	104	-0.2	·	·
CCOC(=O)c1sc(/N=C/c2c(C)[nH]n(-c3ccccc3)c2=O)c(C#N)c1C
 : ·	·	-6	102	-3.7	·	·
COCCCNC(=O)CN1C(=O)c2ccccc2C1=O
 : i	0.72	-4	109	-1.3	0	92
O=C(Nc1ccccc1)Nc1nccs1
 : i	0.88	-7	101	-1.1	50	67
Nc1c(-c2ccsc2)cnc2ncnn12
 : i	0.95	-6	114	·	18	188
CC(C)OC(=O)CSc1nc2ncc(Cl)cc2[nH]1
 : i	0.91	-2	99	0.1	·	·
Cc1cc(NS(=O)(=O)c2ccc(NC(=O)c3cc(-c4ccccc4Cl)nc4ccccc34)cc2)no1
 : i	1.1	4	100	-1.3	-31	95
COc1ccc(NC(=O)C(=O)NCCN2CCN(C(=O)C(c3ccccc3)c3ccccc3)CC2)cc1
 : i	0.82	-4	103	-0.8	0	133
CC(=O)O/N=C(/c1nonc1N)N(C)C
 : i	1.1	2	52	·	·	·
CN=C1SC(CC(=O)Nc2cccc(C(F)(F)F)c2)C(=O)N1C (stereo unspecified)
 : i	0.91	-2	99	-3.0	-162	55
